Screening data as filed in PubChem.
BJeLR viability: kills HRASV12-expressing BJeLR cells | inhibition, % (test concentration not listed) | BJeLR (HRASV12) viability, CellTiter-Glo ATP luminescence, 48 h; reference of the scale not given here | AID 1554 | 0.17% of 300,000 active;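 active means replicate mean above 50%; inconclusive means above 50% but judged a plate artefact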;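 further: 50 nL library stock added to about 25 µL; numbers are from one replicate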
Bead autofluor: counter-screen for toxin protease inhibitors: compound fluorescence; compound autofluorescence counterscreen, microsphere flow cytometry; stronger effect = higher value; fluorescence intensity (concentration not given with the values); 3.1% of 360,000 active;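 active means at least 3 SD above the mean of all compounds, about 16000 in these data; inconclusive means too few beads counted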;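 further: 100 nL of 1 mM stock went into each well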
ugtP null kill: compounds lethal to S. aureus RN4220 ugtP deletion mutant; AID 1259309; 0.54% of 330,000 active; growth inhibition, % (test concentration not listed); OD600 growth, 16 h; some inactives read as strong as hits;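 active means z-score under -3 and OD600 up to 0.15 on both plates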;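 further: plate controls were untreated wells for no effect and antibiotic for full effect; wells of about 80 µL received 100 nL stock; the first replicate is given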
PrP UTR inh: inhibition of PrP 5' UTR reporter expression; cell-based PrP 5' UTR mRNA reporter, plate reader; inhibition, % (test concentration not listed); 0.35% of 340,000 active;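 active means every replicate at 50% or more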;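 further: 0 = median of the neutral control wells; tested in H4 reporter cells; numbers are from one replicate; inactives centre near -14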
RN4220 kill: S. aureus RN4220 growth inhibition. OD600, 16 h. inhibition, % (no concentration beside the values). 0.33% of 330,000 active;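 active means z-score of -3 or lower and OD600 up to 0.18 on both plates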;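 further: plate controls were untreated cells for no effect and reference antibiotic for full effect; stock transfer was 100 nL into about 80 µL; one replicate is shown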
Mtb hypoxia rep: Mtb hypoxia fluorescent reporter inhibition | M. tuberculosis hypoxia-regulated fluorescent reporter, fluorescence | AID 1159583 | fluorescence inhibition, % (test concentration not listed) | 0.1% of 300,000 active;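 active means 35 to 45% if threefold the growth effect, above 45% if 1.5-fold the growth effect; inactive means the rest, general growth blockers included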;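 further: wells of about 50 µL received 100 nL stock; 0% = vehicle wells and 100% = reference inhibitor wells; whole bacteria with a GFP reporter of the hypoxia response; strong numbers were not always called active; many hits fall short of the cut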
Mtb hypoxia rep growth: further read-out of Mtb hypoxia rep, marked with its call; growth inhibition, %; measured here: M. tuberculosis growth (absorbance);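 0% = vehicle and 100% = reference antibiotic; read after six days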
* hit, by the source's call; & = joins results of further samples.

Results for CC12CCC(=O)N1C(C(=O)NNC(=O)c1cccc(Cl)c1)CS2 (configuration not stated) ?
BJeLR viability: -7.0; Bead autofluor: 11021; ugtP null kill: 4.6; PrP UTR inh: -9.8; RN4220 kill: 2.0; Mtb hypoxia rep: 3.1; Mtb hypoxia rep growth: -2.0

How did O=C(NNc1cccc(Cl)n1)Nc1ccccc1Cl do in these assays?
BJeLR viability: 1.4; Bead autofluor: 6538; ugtP null kill: 2.4; PrP UTR inh: -11.3; RN4220 kill: 0.4; Mtb hypoxia rep: 4.1; Mtb hypoxia rep growth: -2.5

What do the screens show for `c1ccc(Cn2nnc3c(NCc4ccc5c(c4)OCO5)nc(C4CC4)nc32)cc1`?
BJeLR viability: 1.6; Bead autofluor: 2838; ugtP null kill: 4.8; PrP UTR inh: -25.4; RN4220 kill: 2.0

Results for O=C(Cc1ccccc1)NCC(=O)N1CCC1 ?
BJeLR viability: 4.5; Bead autofluor: 5128; ugtP null kill: -1.5; PrP UTR inh: 3.0; RN4220 kill: 2.9; Mtb hypoxia rep: -7.3; Mtb hypoxia rep growth: -12.8

How did COc1ccccc1CC(=O)N1CCN(c2ccccc2)CC1 do in these assays?
BJeLR viability: -18.9; Bead autofluor: 3438; ugtP null kill: 3.2; PrP UTR inh: -17.6; RN4220 kill: 3.4; Mtb hypoxia rep: 2.1; Mtb hypoxia rep growth: 0.0

What do the screens show for `CN(C)C(=O)c1cc(C(=O)c2ccccc2F)c[nH]1`?
BJeLR viability: 2.4; Bead autofluor: 3819; ugtP null kill: 4.5; PrP UTR inh: -12.7; RN4220 kill: 1.1; Mtb hypoxia rep: 14.0; Mtb hypoxia rep growth: -4.8

How did COc1ccc(Cl)cc1N1C(=O)C2CCCN2C1c1cccc(F)c1 (configuration not stated) do in these assays?
BJeLR viability: -3.0; Bead autofluor: 5380; ugtP null kill: 10.9; PrP UTR inh: -12.4; RN4220 kill: 0.6

What do the screens show for `CC(C)[C@H](NC(=O)c1ccccc1)C(=O)NC1CCCCCCC1`?
Bead autofluor: 4004; ugtP null kill: 3.3; PrP UTR inh: -14.0; RN4220 kill: 0.5; Mtb hypoxia rep: 8.4; Mtb hypoxia rep growth: 5.8

How did CCOC(=O)c1sc(S(C)(=O)=O)c2c1CC(C)(C)CC2=NO do in these assays?
ugtP null kill: 11.4; RN4220 kill: 3.8; Mtb hypoxia rep: 7.6; Mtb hypoxia rep growth: 6.9

What do the screens show for `NCCC(=O)NC[C@H]1O[C@@H](n2cnc3c(N)ncnc32)[C@H](O)[C@@H]1O`?
Bead autofluor: 3888; ugtP null kill: 5.0; PrP UTR inh: -6.5; RN4220 kill: -0.6; Mtb hypoxia rep: -2.9; Mtb hypoxia rep growth: 0.1

How did Cc1[nH]c(C)c(S(=O)(=O)N2CCCCC2)c1C(=O)N1CCCCC1 do in these assays?
BJeLR viability: -1.3; Bead autofluor: 5199; ugtP null kill: 3.3; PrP UTR inh: -33.1; RN4220 kill: 2.3; Mtb hypoxia rep: 16.4; Mtb hypoxia rep growth: 8.0

Results for CCN1C(=O)C(=c2sc(=C3Sc4ccccc4N3C)c(=O)n2C)N(C)C1=S ?
ugtP null kill: 4.9; RN4220 kill: 3.5; Mtb hypoxia rep: 3.0; Mtb hypoxia rep growth: -2.2

How did COc1ccc2nc(NC(=O)Cc3cccs3)sc2c1 do in these assays?
BJeLR viability: -2.0; Bead autofluor: 3287; ugtP null kill: -6.3; PrP UTR inh: -84.6; RN4220 kill: -1.9; Mtb hypoxia rep: 6.3; Mtb hypoxia rep growth: 5.4

What do the screens show for `CCN(C1CCCCC1)S(=O)(=O)CCNC(=O)c1ccc2c(c1)OCO2`?
BJeLR viability: -0.6; Bead autofluor: inconclusive; ugtP null kill: 1.8; PrP UTR inh: -2.9; RN4220 kill: -0.4; Mtb hypoxia rep: -4.8; Mtb hypoxia rep growth: 15.7

What do the screens show for `O=C(O)C1CCCN1S(=O)(=O)c1ccc(Br)cc1` (configuration not stated)?
BJeLR viability: -10.4; Bead autofluor: 2953; ugtP null kill: -0.6; RN4220 kill: 1.8; Mtb hypoxia rep: 1.8; Mtb hypoxia rep growth: 4.1

Results for C[C@]12CC[C@@H]3c4ccc(OS(=O)(=O)O)cc4CC[C@H]3[C@@H]1CCC2=O ?
BJeLR viability: 3.7&5.8; Bead autofluor: 5445&5509; PrP UTR inh: -15.4&-9.6

Results for O=C1CCCC(O)=C1N=Nc1ccc2c(c1)OCO2 ?
BJeLR viability: 1.8; Bead autofluor: 2821; ugtP null kill: 10.8; PrP UTR inh: -74.7; RN4220 kill: 2.0; Mtb hypoxia rep: 19.0; Mtb hypoxia rep growth: -0.1

Results for COc1cc(C=NNC(=O)c2cccs2)ccc1O ?
ugtP null kill: -5.3; RN4220 kill: 1.8; Mtb hypoxia rep: -9.6; Mtb hypoxia rep growth: 1.1

What do the screens show for `O=C(c1ccco1)N1CCCN(Cc2nc(Cc3ccccc3)no2)CC1`?
BJeLR viability: 2.8; Bead autofluor: 4473; ugtP null kill: 3.4; PrP UTR inh: -10.5; RN4220 kill: 5.1; Mtb hypoxia rep: 11.0; Mtb hypoxia rep growth: 1.2

What do the screens show for `N/C(=N\OC(=O)CC1CCCCC1)c1cccc([N+](=O)[O-])c1`?
BJeLR viability: -1.2; Bead autofluor: 2243; PrP UTR inh: -21.3

How did CCCC(c1nnnn1Cc1ccco1)N1CCN(c2cc(Cl)ccc2C)CC1 (configuration not stated) do in these assays?
Bead autofluor: 3150; ugtP null kill: -5.4; PrP UTR inh: -12.8; RN4220 kill: 3.1; Mtb hypoxia rep: 6.8; Mtb hypoxia rep growth: 8.1

What do the screens show for `COc1ccc(S(=O)(=O)N2CCN(C(=O)CSC(=S)N3CCCC3)CC2)cc1`?
Bead autofluor: 7679; ugtP null kill: 4.4; PrP UTR inh: -16.7; RN4220 kill: 3.1; Mtb hypoxia rep: 0.0; Mtb hypoxia rep growth: -1.7

Results for CCCc1cc(=O)[nH]c(SCC(=O)N2CCCCCC2)n1 ?
Bead autofluor: 5866; ugtP null kill: -5.2; RN4220 kill: -2.3; Mtb hypoxia rep: -7.0; Mtb hypoxia rep growth: 10.4

What do the screens show for `CN1N=C(C(=O)N2CCCC(N3CCN(c4ccc(F)cc4)CC3)C2)CCC1=O` (configuration not stated)?
BJeLR viability: 0.2; Bead autofluor: 5543; ugtP null kill: 2.9; PrP UTR inh: -19.6; RN4220 kill: -1.1; Mtb hypoxia rep: 13.5; Mtb hypoxia rep growth: -0.5

How did NC(=O)c1cccc(-c2cnc(N)c(C(=O)c3cccnc3)n2)c1 do in these assays?
Bead autofluor: 3072; ugtP null kill: -7.5; PrP UTR inh: 38.4; RN4220 kill: 0.2; Mtb hypoxia rep: -0.6; Mtb hypoxia rep growth: 8.5

Results for CN(C)C(=O)c1nc2ccc(Cl)cn2c1CNCc1cccc(OC(F)(F)F)c1 ?
BJeLR viability: -6.0; Bead autofluor: 5900; ugtP null kill: 2.1; PrP UTR inh: -34.2; RN4220 kill: 6.6; Mtb hypoxia rep: -4.1; Mtb hypoxia rep growth: 5.7

How did O=C(CN1C(=O)c2ccccc2C1=O)Nc1ccccc1C(F)(F)F do in these assays?
BJeLR viability: 10.3; Bead autofluor: 4373; ugtP null kill: 3.3; PrP UTR inh: -7.7; RN4220 kill: 4.8; Mtb hypoxia rep: 16.1; Mtb hypoxia rep growth: 9.9

What do the screens show for `CCOc1ccc(CCNC(=O)c2ccc(NC3=NC4CS(=O)(=O)CC4S3)cc2)cc1` (configuration not stated)?
BJeLR viability: -6.2; Bead autofluor: 5257; ugtP null kill: 5.6; PrP UTR inh: -19.8; RN4220 kill: 4.7; Mtb hypoxia rep: -3.0; Mtb hypoxia rep growth: 8.0

How did CCCC(=O)c1c[nH]c(C(=O)NCc2cccnc2)c1 do in these assays?
BJeLR viability: 2.7; Bead autofluor: 4293; ugtP null kill: 7.6; PrP UTR inh: -22.6; RN4220 kill: 8.6; Mtb hypoxia rep: -8.8; Mtb hypoxia rep growth: -14.3

How did CCC1CCc2c(sc(NC(=O)C3CC=CCC3C(=O)O)c2C#N)C1 (configuration not stated) do in these assays?
BJeLR viability: -1.5; Bead autofluor: 2013; ugtP null kill: 3.4; PrP UTR inh: -11.5; RN4220 kill: 3.0; Mtb hypoxia rep: -1.3; Mtb hypoxia rep growth: 3.2

What do the screens show for `COc1cc(OC)c(CN2CCCCCCC2)cc1Br`?
BJeLR viability: 10.0; Bead autofluor: 10600; ugtP null kill: -0.4; PrP UTR inh: -22.4; RN4220 kill: 3.8; Mtb hypoxia rep: 12.7; Mtb hypoxia rep growth: 16.9

Results for O=C(NN=Cc1ccc(O)cc1)c1[nH]c2ccc(Br)cc2c1-c1ccccc1 ?
ugtP null kill: -25.7; RN4220 kill: -2.3; Mtb hypoxia rep: 5.6; Mtb hypoxia rep growth: 9.2

How did COc1ccccc1-n1cc(C(=O)NCC(=O)NCc2ccc(F)cc2)c2ccccc2c1=O do in these assays?
BJeLR viability: 1.6; Bead autofluor: 4642; ugtP null kill: 3.9; PrP UTR inh: -23.6; RN4220 kill: 0.8; Mtb hypoxia rep: -8.7; Mtb hypoxia rep growth: -9.1

What do the screens show for `CCCC(=O)Nc1ccc(S(=O)(=O)Nc2nccs2)cc1`?
BJeLR viability: -10.3; Bead autofluor: 6329; ugtP null kill: -0.3; PrP UTR inh: 2.2; RN4220 kill: 1.5

Results for COc1ccc(-n2c(=O)c(CCC(=O)N3CCN(c4ccccc4O)CC3)nc3ccccc32)cc1 ?
BJeLR viability: 13.3; Bead autofluor: 5253; ugtP null kill: 3.7; PrP UTR inh: -5.4; RN4220 kill: -0.5; Mtb hypoxia rep: 0.0; Mtb hypoxia rep growth: 2.4

What do the screens show for `O=C(c1cccnc1Nc1ccc2c(c1)CCC2)N1CCOCC1`?
BJeLR viability: -0.7; Bead autofluor: 4417; ugtP null kill: 7.0; PrP UTR inh: -24.2; RN4220 kill: 4.5; Mtb hypoxia rep: 8.8; Mtb hypoxia rep growth: 7.4

What do the screens show for `CC/C(O)=C1\C(=O)CC(c2ccccc2)CC1=NCCc1c(C)[nH]c2ccc(C)cc12` (configuration not stated)?
BJeLR viability: 9.5; Bead autofluor: 4362; ugtP null kill: -4.3; PrP UTR inh: -13.0; RN4220 kill: -8.9; Mtb hypoxia rep: 2.0; Mtb hypoxia rep growth: 0.5

What do the screens show for `CCOC(=O)/C(C#N)=C/c1c(Oc2cc(C)cc(C)c2)nc2ccccn2c1=O`?
BJeLR viability: 0.3; Bead autofluor: 2324; PrP UTR inh: -19.4

How did C=C(C)CCC(C)N1CCC(n2nccc2NC(=O)CCOc2ccccc2)CC1 (configuration not stated) do in these assays?
BJeLR viability: -6.0; Bead autofluor: 6031; ugtP null kill: -6.7; PrP UTR inh: -18.0; RN4220 kill: -2.4; Mtb hypoxia rep: 1.8; Mtb hypoxia rep growth: -6.5

How did COc1ccccc1/C=C/C=N/NC(=O)c1cc(-c2ccc(C)o2)[nH]n1 do in these assays?
BJeLR viability: -10.9; Bead autofluor: 3837; PrP UTR inh: -31.0

What do the screens show for `CCc1ccccc1NC1=NCC(=O)N1Cc1ccc(OC)cc1`?
BJeLR viability: 18.2; Bead autofluor: 3504; ugtP null kill: -0.2; PrP UTR inh: -11.4; RN4220 kill: 1.5

What do the screens show for `CCOc1ccc(C2N(c3cc(Cl)ccc3OC)C(=O)C3CCCN32)cc1OC` (configuration not stated)?
BJeLR viability: -13.0; Bead autofluor: 5878; ugtP null kill: 0.2; PrP UTR inh: -14.0; RN4220 kill: 2.2

What do the screens show for `COc1cc(/C=C/c2nc3ccccc3c(=O)[nH]2)ccc1OC(F)F`?
BJeLR viability: -3.5; Bead autofluor: 3795; ugtP null kill: 8.7; PrP UTR inh: -25.7; RN4220 kill: 2.5; Mtb hypoxia rep: -1.6; Mtb hypoxia rep growth: -3.5

Results for CCCCN(CCCC)C(=S)NN=Cc1c(C)[nH]n(-c2ccccc2)c1=O ?
ugtP null kill: -13.2; RN4220 kill: 4.0; Mtb hypoxia rep: -8.5; Mtb hypoxia rep growth: -2.8

Rows were taken by chance (roughly 4% active in at least one column).
